From PubChem BioAssay
HepG2: HepG2 cell cytotoxicity, dose response, cytotoxicity control, ATP luminescence, cherry-pick, activator set 2 (AID 1053143); HepG2 viability, CellTiter-Glo ATP luminescence, 72 h; 3,400 compounds, 3.7% hits; activity change, negative = cytotoxicity, % at the top dose, mostly 26 µM; hits show AC50 in µM;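 active = fitted AC50 at most twice the highest valid dose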;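 note: 0 = neutral control and -100 = positive control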
* hit, by the source's call; [ ] = dose if it differs, or a comment. An excerpt; count on the stated rates, not on these rows.

SMILES	HepG2
O=C(Nc1ccc(N2CCOCC2)c(Cl)c1)c1ccc(Br)o1	-5%
Cc1c(Cl)ccc2sc(NC(=O)c3ccco3)nc12	17µM*
CCCc1cc(C(=O)Nc2cccc(Cl)c2)no1	1%
O=C(NC1CCCC1)c1noc2c1CCCCC2	5%
N/C(=N\OC(=O)COc1ccc2ccccc2c1)c1ccccn1	-13%
O=c1c2ccccc2nc2c3ccccc3c(NCc3ccccn3)nn12	-4%[6 µM]
COc1ccc2cc(-c3ccn[nH]3)ccc2c1	-18%
CN(C)c1ccc(N=Cc2nc(-c3ccccc3)oc2OC(=O)c2ccccc2)cc1	9%
O=C(Nc1cccc(-c2ccc(N3CCOCC3)nn2)c1)c1ccc([N+](=O)[O-])cc1	-6%
Cc1ccc(S(=O)(=O)/N=C(/Nc2ccc(O)c(C(=O)O)c2)c2ccccc2)cc1	-16%
Cc1cc(C(=O)Nc2ccc3[nH]ccc3c2)no1	-8%
COc1cccc(C(=O)Cn2c(Br)nc3c2c(=O)n(C)c(=O)n3C)c1	-9%
CCCNC(=O)c1cc(-c2ccc3c(c2)OCO3)on1	-32%
O=C(/C=C\c1ccccc1)Nc1nccs1	-12%[12 µM]
O=c1/c(=C\c2ccc(F)cc2)sc2n1CCCN=2	-17%
CC(C)C1COC(c2cccc3ccccc23)=N1 (stereo not drawn)	-2%
Cn1c(NC(=O)/C=C/c2ccccc2)cc(=O)n(C)c1=O	-13%
Clc1ccc(-c2nnc(-c3ccco3)o2)cc1	-12%
Cc1cccc(-c2noc(-c3ccc(F)cc3)n2)c1	4%
COC(=O)c1nn(-c2ccc(C)cc2)c2nnc(Cc3ccccc3)c(=O)n12	0%
COc1ccccc1CNc1nc2cc(-c3sccc3C)sc2c(=O)n1C	9%
Cn1c(SCc2ccccc2F)nnc1-c1ccccn1	-2%
COc1ccccc1Cn1c(/C=C/c2ccccc2)nc2ccccc21	-1%
COc1cc(C(=O)O/N=C2\C=CC(=O)C(C)=C2)cc(OC)c1OC	-10%
Nc1ccc2oc(-c3ccccn3)nc2c1	-8%
COc1cccc(-c2nnc(NC(=O)c3ccco3)s2)c1	-8%
CC(C)(C)C(=O)N/C(N)=N/c1nc2ccccc2o1	-24%
O=C(/C=C/c1cnc2ccccc2n1)NC1CCCCCC1	-13%
O=C(CC(Nc1ccc(Cl)cc1)C(=O)O)c1ccccc1 (stereo not drawn)	2%
Cc1sc(NC(=O)c2ccc(Cl)s2)c(C(N)=O)c1C	-7%
COc1ccc(NC(=O)c2c(NC(=O)CCC(=O)O)sc(-c3ccccc3)c2C)cc1	-8%
Cc1cccc(-c2nc(C#N)c(NCc3ccco3)o2)c1	-3%
O=C(NC(=O)c1ccccc1)Nc1ccccc1	1%
O=C1NCCN/C1=C\C(=O)c1ccc(Br)cc1	-11%[6 µM]
COc1ccc(/C(N)=N/OC(=O)C2CCCCC2)cc1	-7%
O=C(COc1cc(Cl)c(Cl)cc1Cl)Nc1cccc(O)c1	-2%
O=C(Nc1ccc2c(c1)OCCO2)C1C(c2ccccc2)=Nc2ccccc2N1C(=O)c1cccnc1 (stereo not drawn)	-11%
O=C(Cc1nc2ccccc2[nH]c1=O)c1ccc(Cl)cc1	15%
CNC(=O)COc1coc(CN2CCN(C(=O)c3ccco3)CC2)cc1=O	-9%[12 µM]
COC(=O)C1CCN(S(=O)(=O)c2c(C)n(C)c(=O)n(C)c2=O)CC1	0%
Cc1nc2nc(N)nc(OCc3ccccc3)c2nc1C	-11%
COc1ccc(/C(N)=N/OC(=O)CSc2ccccc2)cc1OC	-8%
O=C(NCCc1ccc(F)cc1)Nc1ccc2c(c1)OCO2	0%
Fc1ccc2c(Cl)c(-c3nnc(-c4cccs4)o3)sc2c1	-21%
Cc1cccc(-c2noc(CSc3ccccc3)n2)c1	2%
O=C(Nc1ccc2c(c1)CCC2)c1cccs1	-5%
CCOc1ccc(C(=O)N(CC(=O)Nc2cccc(C)c2C)CC2CCCO2)cc1OC (stereo not drawn)	-7%
Cc1nn(C(=O)c2cccs2)c(N)c1-c1ccccc1	-3%
CCCn1c(C)cc(C(=O)CN2C(=O)c3ccccc3C2=O)c1C	9%
O=C(N/N=C/c1ccc2c(c1)OCO2)c1ccc(Br)o1	-3%
(more compounds)
SMILES	HepG2
COc1ccc(-c2csc(N(C)C(=O)c3cccs3)n2)cc1	0%
CC(C)(C)C(=O)CSc1nc2ccccc2o1	-9%[12 µM]
CCOc1ccc(-c2nnc(-c3ccccc3)n2-c2ccccc2)cc1	6%[6 µM]
O=C(Cn1nnc2ccccc21)c1ccc(Cl)cc1	-8%
Clc1ccc(CSc2snnc2-c2ccccc2)c(Cl)c1	18%
[O-][n+]1c2ccccc2c2n1CCN1CCOC21c1ccc(Cl)cc1 (stereo not drawn)	0%
CCOC(=O)C1CCN(CCC(=O)Nc2ccc(C)c(C)c2)CC1	-8%
O=C(/C=C/c1ccc([N+](=O)[O-])cc1)Nc1cccnc1	-2%[6 µM]
Cc1ccc(-n2cc3ccc([N+](=O)[O-])cc3n2)cc1	-14%
O=C(Nc1ccc(Cl)cn1)Nc1ccccc1F	-7%
O=c1c(-c2ccc(O)cc2)coc2cc(OC3OC(CO)C(O)C(O)C3O)cc(O)c12 (stereo not drawn)	-1%
COc1ccc(C(=O)NN/C(=N/S(=O)(=O)c2ccc(C)cc2)c2ccccc2)cc1	-2%
COc1ccc(S(=O)(=O)N2CCOCC2)cc1NC(=O)c1ccc2c(c1)OCCO2	-13%
COC(=O)CNC(=O)Cn1nc(C)c([N+](=O)[O-])c1C	-9%
Nc1ccc(CSc2ccc(Cl)cc2)c(Cl)c1	39%
COc1ccc(NC(=O)Nc2ccc3nonc3c2)cc1	-11%
COc1ccc2[nH]c(=O)c(CNc3ccccc3C)cc2c1	-1%
O=C(NCC(c1ccco1)N1CCCC1)c1cc(=O)[nH]c2ccccc12 (stereo not drawn)	-1%
CC(C)[C@@H](CO)NC(=O)c1ccc2c3n(nc2c1)-c1ccc(Cl)cc1CO3	-9%
O=S(=O)(c1cccs1)N1CCN(Cc2nc3ccccc3s2)CC1	-19%
O=C(NCCO)c1ccc2c3n(nc2c1)-c1ccc(Cl)cc1CO3	-13%
O=C(Cc1ccc(Cl)cc1)c1ccccc1	-6%
c1ccc(-c2nc3ccccc3s2)nc1	-9%
Cc1ccc(NC(=O)CCC(=O)c2cccs2)cc1	0%
O=C(c1cc2ccccc2[nH]1)N1O[C@@H]2C=C[C@H]1C2	-6%
Cc1cc(C(=O)Nc2nc3ccc(Cl)cc3s2)nn1C	-5%
CCCCNC(=O)C1(C)CCCCN1C(=O)c1cccs1 (stereo not drawn)	-9%
c1ccc(Nc2ccnc(Nc3ccccc3)n2)cc1	26µM*
Cc1cc(C(=O)CSc2ncccn2)c(C)n1-c1cccc(F)c1	-11%
Cc1cc(C(=O)COC(=O)c2ccc(O)cc2)c(C)n1CC(F)(F)F	-6%
Cc1ccc(CONC(=O)c2ccc(C)cc2)cc1	-8%
CCOc1ccc(N2C(=O)c3ccccc3C2O)cc1 (stereo not drawn)	-8%
O=C(c1cccs1)c1coc2ccc(O)cc12	-17%
O=C(NCc1nnc(SCC(=O)N2CCCc3ccccc32)o1)c1c(F)cccc1Cl	-1%
COCCNC(=O)c1cc2sc3ccccc3c2s1	-15%
O=C(Nc1ccc2sccc2c1)c1ccc(Cl)s1	-12%
O=C(O)c1ccc(-c2noc(-c3cccc(F)c3)n2)cc1	-23%
Nc1c(C(=O)N2CCCC2)sc2nc(-c3ccccc3)ccc12	-6%
Cc1cc(/C=C2/NC(=O)N(c3ccccc3)C2=O)c(C)n1-c1cccnc1	-8%
CCOC(=O)c1sc(NC(=O)Nc2cccc(Cl)c2)cc1C	15µM*
O=C(Nc1nc2ccccc2s1)NC1CCCCC1	-4%
CCC(=O)Nc1ccccc1C(=O)OCC(=O)c1ccc2ccccc2c1	8%
Cc1ccc(-c2cc(C(=O)Nc3cccnc3)[nH]n2)c(O)c1C	-9%
O=C(Nc1ccccc1)C1=C[C@@H](C2CC2)C[C@@H](OCc2ccc(CO)cc2)O1	-11%
CN(C)C(=O)c1ccc(-c2cc(C(F)(F)F)nn2C)s1	-18%
CCOC(=O)N1CCN(C(=O)c2cccc(S(=O)(=O)Nc3ccc(F)cc3)c2)CC1	35%
COc1ccc(-c2noc(-c3ccco3)n2)cc1OC	-6%
COc1cc2cc(C(c3nnnn3C(C)(C)C)N3CCc4ccccc4C3)c(=O)[nH]c2cc1OC (stereo not drawn)	-4%
Cc1ccc(C(=O)Nc2ncc(Cc3ccc(F)cc3)s2)o1	12µM*
COc1cccc(NC(=O)CC(=O)c2ccccc2)c1	-8%
Additional entries.
SMILES	HepG2
C=CCN=C1S/C(=C\c2ccc(N(C)C)cc2)C(=O)N1CC=C	-5%
CCc1sc(C(=O)N2CCc3ccccc32)cc1C	-9%
O=C(c1cc2ccccc2[nH]1)N1CCOCC1	-15%
Cc1ccc(C(=O)Nc2ccc(C(F)(F)F)n(C)c2=O)cc1	4%
N/C(=N\OC(=O)c1cccs1)c1ccc(Cl)cc1	4%
CCCc1cc(C(=O)Nc2cccc(C(C)=O)c2)no1	-8%
O=c1sc2ccccc2n1CCCOc1ccccc1	-14%
O=C(OCC(=O)N1CCN(Cc2ccccc2)CC1)c1cc(Cl)ccc1[N+](=O)[O-]	-8%
Cc1ccc(NC(=O)Nc2ccc3oc(C)nc3c2)cc1	-9%
CC1Sc2ccc(C(=O)Nc3ccccc3OC(F)F)cc2NC1=O (stereo not drawn)	-7%
CCOC(=O)c1cnn2c(C)cc(-c3ccccc3)nc12	9%
O=S(=O)(c1ccc(Cl)cc1)N1CCN(Cc2ccc(O)c3ncccc23)CC1	-27%
CCOC(=O)c1c(C)[nH]c(C(C)=NNC(=O)c2cccs2)c1C	34%
CC(=O)NC1C(c2nc3ccccc3s2)=C(c2ccccc2)C(=O)N1c1ccc(C)cc1 (stereo not drawn)	-12%
c1ccc(N2CCN(c3nc4cc5c(cc4s3)OCO5)CC2)cc1	-20%
CCOC(=O)C1=C(Nc2ccc(OC)cc2)OCC1=O	12%
Cc1cccc(N2CCN(C(=O)CCCOc3ccccc3)CC2)c1C	5%
Clc1ccc(OCc2noc(-c3ccsc3)n2)c(Cl)c1	23%
O=C(COc1ccccc1F)Nc1ccc2c(c1)CCC2	-4%
Cn1cc(Br)c(C(=O)NNC(=O)c2ccc(Cl)cc2)n1	-9%
CCOC(=O)c1oc2nc3c(cc2c1N)COC(C)(C)C3	-11%
CC(C)c1ccc(NC(=O)c2ccccc2NC(=O)C2CCCCC2C(=O)O)cc1 (stereo not drawn)	-14%
Cc1ccc(C(=O)NCCC(=O)N2CCOCC2)cc1	61%

Of the compounds above, 20 have a thiophene ring, fused or not:
SMILES	HepG2
COc1ccccc1CNc1nc2cc(-c3sccc3C)sc2c(=O)n1C	9%
Cc1sc(NC(=O)c2ccc(Cl)s2)c(C(N)=O)c1C	-7%
COc1ccc(NC(=O)c2c(NC(=O)CCC(=O)O)sc(-c3ccccc3)c2C)cc1	-8%
Fc1ccc2c(Cl)c(-c3nnc(-c4cccs4)o3)sc2c1	-21%
O=C(Nc1ccc2c(c1)CCC2)c1cccs1	-5%
Cc1nn(C(=O)c2cccs2)c(N)c1-c1ccccc1	-3%
COc1ccc(-c2csc(N(C)C(=O)c3cccs3)n2)cc1	0%
O=S(=O)(c1cccs1)N1CCN(Cc2nc3ccccc3s2)CC1	-19%
Cc1ccc(NC(=O)CCC(=O)c2cccs2)cc1	0%
CCCCNC(=O)C1(C)CCCCN1C(=O)c1cccs1 (stereo not drawn)	-9%
O=C(c1cccs1)c1coc2ccc(O)cc12	-17%
COCCNC(=O)c1cc2sc3ccccc3c2s1	-15%
O=C(Nc1ccc2sccc2c1)c1ccc(Cl)s1	-12%
Nc1c(C(=O)N2CCCC2)sc2nc(-c3ccccc3)ccc12	-6%
CCOC(=O)c1sc(NC(=O)Nc2cccc(Cl)c2)cc1C	15µM*
CN(C)C(=O)c1ccc(-c2cc(C(F)(F)F)nn2C)s1	-18%
CCc1sc(C(=O)N2CCc3ccccc32)cc1C	-9%
N/C(=N\OC(=O)c1cccs1)c1ccc(Cl)cc1	4%
CCOC(=O)c1c(C)[nH]c(C(C)=NNC(=O)c2cccs2)c1C	34%
Clc1ccc(OCc2noc(-c3ccsc3)n2)c(Cl)c1	23%
